# Source: PubChem (several laboratories)
# Autofluor counter = flagged as autofluorescent in microsphere protease counterscreen | compound autofluorescence counterscreen, microsphere flow cytometry; active compounds read high | fluorescence intensity (test concentration not listed) | hit rate 3.1% among 360,000 | AID 624483;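 active means at least 3 SD above the mean of all compounds, about 16000 in these data; inconclusive means too few beads counted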;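 further: 100 nL of 1 mM stock went into each well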
# Sa ugtP lethal = growth inhibition of ugtP-null S. aureus, primary screen, RN4220 ugtP deletion, OD600; 16 h; some inactives read as strong as hits; growth inhibition, % (test concentration not listed); hit rate 0.54% among 330,000;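 active means z-score under -3 and OD600 up to 0.15 on both plates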;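 further: plate controls were untreated wells for no effect and antibiotic for full effect; wells of about 80 µL received 100 nL stock; the first replicate is given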
# Mtb hypoxia rep = PubChem AID 1159583 | M. tuberculosis hypoxia-regulated fluorescent reporter, fluorescence | fluorescence inhibition, % (concentration not given with the values) | hit rate 0.1% among 300,000;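 active means 35 to 45% if threefold the growth effect, above 45% if 1.5-fold the growth effect; inactive means the rest, general growth blockers included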;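 further: wells of about 50 µL received 100 nL stock; 0% = vehicle wells and 100% = reference inhibitor wells; whole bacteria with a GFP reporter of the hypoxia response; strong numbers were not always called active; many hits fall short of the cut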
# BJeLR lethal = MLPCN primary cell-based screen for lethality selective to Ras in HRASV12 cells; BJeLR (HRASV12) viability, CellTiter-Glo ATP luminescence, 48 h; reference of the scale not given here; inhibition, % (no concentration beside the values); hit rate 0.17% among 300,000;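 active means replicate mean above 50%; inconclusive means above 50% but judged a plate artefact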;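 further: 50 nL library stock added to about 25 µL; numbers are from one replicate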
# PrP 5UTR inh = inhibition of PrP 5' UTR reporter expression. cell-based PrP 5' UTR mRNA reporter, plate reader. hit rate 0.35% among 340,000. AID 488862, 2010. inhibition, % (no concentration beside the values);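 active means every replicate at 50% or more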;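 further: 0 = median of the neutral control wells; tested in H4 reporter cells; numbers are from one replicate; inactives centre near -14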
# RN4220 kill = growth inhibition of S. aureus RN4220, primary screen, OD600; inhibition, % (no concentration beside the values); AID 1259311, 2017; 16 h; hit rate 0.33% among 330,000;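 active means z-score of -3 or lower and OD600 up to 0.18 on both plates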;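 further: plate controls were untreated cells for no effect and reference antibiotic for full effect; stock transfer was 100 nL into about 80 µL; one replicate is shown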
# Mtb hypoxia rep growth = second read-out of Mtb hypoxia rep, no call of its own (marks repeat the call); growth inhibition, %; measured here: M. tuberculosis growth (absorbance);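 0% = vehicle and 100% = reference antibiotic; read after six days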
# An asterisk follows results filed as active; ? = inconclusive; . = not tested or not shown. Compounds were not picked by outcome; 4.1% or so of the library scored in one or more.
# Order of results – Sa ugtP lethal, PrP 5UTR inh, RN4220 kill, Mtb hypoxia rep, Mtb hypoxia rep growth, Autofluor counter, BJeLR lethal
> COc1ccc(NC(=S)NC(=O)c2ccc3c(c2)OCCO3)cc1
 : 3, -99, 2.3, 13, 5, 3042, .
> COc1cc(OC)cc(C(=O)NNC(=O)c2ccc(S(=O)(=O)N(C)c3ccccc3OC)cc2)c1
 : 0, -20, 2.6, 6, 3, 5438, 14
> O=C(c1ccco1)N1C(=O)c2cccc3cccc1c23
 : -7, -5, 1.9, ., ., 2683, .
> COc1cc(C=NNC(=O)CCc2c(C)n[nH]c2C)ccc1O
 : 8, ., 7.1, 15, 4, ., .
> COc1ccc(OC)c(/C=N/NC2=NS(=O)(=O)c3ccccc32)c1
 : ., -12, ., ., ., 3460, -11
> COCCNC(=O)C1CCCN1S(=O)(=O)c1cccc2cccnc12 (stereo not given)
 : -4, ., 6.8, 9, 8, ., .
> O=C1N/C(=C/c2cccn2-c2ccc(F)cc2)C(=O)N1Cc1ccccc1
 : 33, -18, 4.0, 14, 6, 23854*, -6
> CCOc1ccc(OCC)c(NC(=O)CCCN2C(=S)NC(C)(C)CC2C)c1 (stereo not given)
 : 7, -22, 0.9, 12, -2, 7517, -2
> CC1(OC(=O)CCc2ccccc2)C(=O)C=C2C=C(c3ccc(C#N)cc3)N(Cc3ccco3)C=C2C1=O (stereo not given)
 : ., -51, ., ., ., 3882, -10
> CCOc1ccccc1OCCC(=O)OCC(=O)c1ccc[nH]1
 : 5, -37, 2.5, 8, 0, 4372, -22
> N#Cc1cc2c(nc1SCc1ccccc1)CCCC2=O
 : -10, -59, -2.4, -3, 6, 7342, 5
> Cc1nc(-c2ccc(Cl)cc2)sc1C1(C)CC(c2cccc(Cl)c2)=NO1 (stereo not given)
 : 5, -26, 6.1, -3, -1, 3692, 13
> Cc1cccc(C2c3[nH]c4ccccc4c3CCN2C(=O)c2cn(C)c3ccccc3c2=O)n1 (stereo not given)
 : -11, -14, 6.7, -2, -2, 2328, 1
> Cc1ccc(NC(=O)CSc2nnc(-c3cccs3)n2Cc2ccco2)cc1
 : 4, 2, 21, 4, 10, 11600, -10
> CN(CC(=O)Nc1ccccc1C(F)(F)F)C(=O)CN1C(=O)C2CCCCC2C1=O (stereo not given)
 : ., -5, ., ., ., 6589, -16
> CCCOc1ccc(NC(=O)C2OC3OC(C)(C)OC3C3OC(C)(C)OC23)cc1 (stereo not given)
 : 10, ., 3.2, -2, 4, ., 0
> O=C(CN1C(=O)c2ccccc2C1=O)NCCOc1ccccc1
 : 0, -27, 0.6, -7, -5, 3834, -8
> Cc1c(Nc2cc(Cl)c3nonc3c2[N+](=O)[O-])c(=O)n(-c2ccccc2)n1C
 : 1, -6, 8.1, ., ., 3564, .
> COc1ccccc1CNC(=O)C(c1ccccc1)c1ccccc1
 : 12, -22, 3.7, -6, -2, 3728, -11
> CN(C(=O)C1CCCO1)c1nnc(-c2ccncc2)s1 (stereo not given)
 : -2, -20, 3.3, 7, 14, 4338, -1
> N#Cc1c(-c2ccccc2)nc(SCC(=O)NC2CCCCC2)[nH]c1=O
 : 2, 3, 1.7, -3, -1, 4142, .
> COc1cc([N+](=O)[O-])ccc1NC(=O)Nc1ccc(C(=O)N2CCCC2)cc1
 : 11, -19, -1.3, 3, 7, 6144, -9
> COc1ccc(S(=O)(=O)N/N=C\c2ccc3c(c2)OCO3)cc1
 : ., -11, ., ., ., 11128, -2
> Fc1ccccc1-c1csc(=Nc2cccnc2)n1CC1CCCO1 (stereo not given)
 : 0, -4, 7.7, -10, 3, 1980, 4
> NC1=C(Cl)C(=O)c2ccc(S(N)(=O)=O)cc2C1=O
 : 98*, 96*, 99*, ., ., 3787, .
> COC(=O)C1=C(c2ccccc2)CC2CCC1N2C(=O)NC(C)C (stereo not given)
 : -2, ., 0.8, 5, 9, ., .
> Cc1ccc(OCC(=O)Nc2cccc(S(=O)(=O)N3CCCCC3)c2)c([N+](=O)[O-])n1
 : -1, -7, 3.1, 9, 4, 2032, -2
> O=C(NCc1cccs1)C(=O)NCC1OCCCN1S(=O)(=O)c1cccs1 (stereo not given)
 : 3, -25, 2.6, 12, 3, 2256, -5
> Cn1c(N)c(C(=O)COC(=O)COc2ccc3ccccc3c2)c(=O)n(C)c1=O
 : -1, -3, 0.5, 9, 3, 3322, 3
> Clc1ccc(-c2ccnc(Oc3ccc4ccccc4c3)n2)cc1
 : 3, 17, 3.8, ., ., 2937, -2

# Quoted at random: 5 records from the list
# Order of results – Sa ugtP lethal, PrP 5UTR inh, RN4220 kill, Mtb hypoxia rep, Mtb hypoxia rep growth, Autofluor counter, BJeLR lethal
> O=C1N/C(=C/c2cccn2-c2ccc(F)cc2)C(=O)N1Cc1ccccc1
 : 33, -18, 4.0, 14, 6, 23854*, -6
> N#Cc1cc2c(nc1SCc1ccccc1)CCCC2=O
 : -10, -59, -2.4, -3, 6, 7342, 5
> COC(=O)C1=C(c2ccccc2)CC2CCC1N2C(=O)NC(C)C (stereo not given)
 : -2, ., 0.8, 5, 9, ., .
> O=C(CN1C(=O)c2ccccc2C1=O)NCCOc1ccccc1
 : 0, -27, 0.6, -7, -5, 3834, -8
> O=C(c1ccco1)N1C(=O)c2cccc3cccc1c23
 : -7, -5, 1.9, ., ., 2683, .

# Continued.
# Order of results – Sa ugtP lethal, PrP 5UTR inh, RN4220 kill, Mtb hypoxia rep, Mtb hypoxia rep growth, Autofluor counter, BJeLR lethal
> CCOC(=O)/C=C/C(=O)OCC(=O)Nc1ccc([N+](=O)[O-])cc1
 : 6, -74, 3.1, 8, -8, 4070, 6
> O=C(NCCc1ccc(OC(F)F)cc1)C1CC(=O)N(c2ccc3c(c2)OCCO3)C1 (stereo not given)
 : 2, -55, -0.6, 8, -2, 4943, .
> N#Cc1ccccc1COC(=O)c1cccc(S(=O)(=O)N2CCCC2)c1
 : 12, -7, 5.6, 6, 0, 3236, .
> CC(C)CC(O)C1CCN(C(=O)CCc2nnc(-c3ccccc3)o2)CC1 (stereo not given)
 : 1, -36, 0.6, 7, 9, 3821, -8
> O=C(Nc1nnc(-c2ccco2)s1)C1CCCCC1
 : -10, -84, -11, 1, 4, ?, 2
> Cn1cccc1Cc1nnc(SCC(=O)NCc2ccc(F)cc2)n1-c1ccc(F)cc1
 : -2, -18, -1.9, ., ., 6331, -2
> C[N+](C)(C)CC=O
 : 3, -28, 5.6, 7, -5, 6209, .
> CCCn1c(SCC(=O)Nc2cc(S(=O)(=O)N(C)C)ccc2OC)n[nH]c1=O
 : 1, -26, 3.4, 6, 13, 4357, 25
> Cc1cc(NC(=O)CCC(=O)N(CC(=O)NC2CCCC2)c2ccc(C)c(F)c2)no1
 : -5, -13, -3.2, -12, -9, 4693, -7
> C=CCOc1ccc(/C=C2\SC(=S)N(NS(=O)(=O)c3ccccc3)C2=O)cc1
 : 53, -10, 41, 9, 1, 3032, -9
> O=C(c1ccc2c(c1)OCO2)C1CCCN(C(=O)c2cnn(Cc3ccccc3)c2)C1 (stereo not given)
 : 7, -7, 3.1, 3, 7, 3458, 1
> CCOc1ccccc1C1C(C(=O)Nc2ccccc2OC)=C(C)Nc2nc(CCCO)nn21 (stereo not given)
 : 6, 2, 1.6, 12, 5, 6177, 1
> Cc1ccc(C(=O)NC(=S)NCc2ccccc2)cc1
 : 13, -3, 3.3, 6, -2, 4083, -8
> CC(C)(C)OC(=O)N[C@@H](Cc1ccccc1)[C@H](O)c1ccco1
 : ., -23, ., ., ., 4058, -6
> Cc1c(C)c2ccc(OCC(=O)Nc3cccnc3)c(C)c2oc1=O
 : -2, -48, 3.7, -1, 3, 5400, -3
> CC(C(=O)NCc1ccc2c(c1)OCO2)c1ccc([N+](=O)[O-])cc1 (stereo not given)
 : 4, -14, -1.0, 7, 7, 2114, 1
> CCN(CC)CCCNC(=O)CC1Oc2ccc(C)cc2NC1=O (stereo not given)
 : 7, 1, 10, ., ., 5852, -13
> O=C(COc1ccc(S(=O)(=O)NC2CCCC2)cc1)NCC1CCCO1 (stereo not given)
 : 2, -20, 2.5, 5, -2, 4744, 0
> COc1ccc(C2N(S(=O)(=O)c3ccccc3)CCN2S(=O)(=O)c2ccc(C)cc2)cc1 (stereo not given)
 : -12, -1, 3.0, 4, 7, 17266*, 5
> CCOC(=O)C1C2COc3cc(OC)ccc3C2N2C(=O)c3cc(OC)ccc3NC(=O)[C@@]12C (stereo not given in full)
 : 1, ., 4.2, 0, 5, ., .
> CCN(CC(=O)O)S(=O)(=O)c1cc(Cl)ccc1Cl
 : -6, -9, -5.1, 14, 11, 2923, -3
> CCOc1ccc(NC(=O)CN(C)C(=O)C2CC(=O)N(c3cccc(SC)c3)C2)cc1OCC (stereo not given)
 : 5, -14, 4.2, 5, 5, 3414, .
> Cc1ccc(CNC(=O)C2CC3Cn4c(nc5cc(C)c(C)cc54)C3N2C)o1 (stereo not given)
 : 3, -7, 1.5, 4, -5, 3535, 3
> CCOc1ccc(C2C(C(=O)c3ccco3)=C(O)C(=O)N2CCN2CCOCC2)cc1 (stereo not given)
 : 1, -15, 4.9, 12, 9, 5458, -11
> CC(C)C[C@H]1CN=C(Nc2ccccc2)N1CC1CCCCCC1
 : -25, 0, -12, -5, -3, 4356, .
> CCn1c(CNC(=O)Cc2ccc(OC)cc2)nnc1SCC(=O)c1ccccc1
 : 6, -5, 1.2, -10, -12, 4413, .
> CCN(Cc1ccccc1)C(=O)COC(=O)c1n[nH]c2ccccc12
 : -1, -8, -13, 10, 8, 3070, .
> O=C(CSC1=NS(=O)(=O)c2cc(F)ccc2N1)Nc1ccccc1
 : 17, -8, 5.1, -10, 0, 4368, 1
> Clc1cccc(CN2CCc3c([nH]c4ccccc34)C2)c1
 : -14, -29, -3.0, 2, 2, 6130, 5
> O=C(COc1ncnc2c(Cl)cc(Cl)cc12)NC1CCCCCC1
 : 0, -19, -4.2, ., ., 4609, -5

# Next structures.
# Order of results – Sa ugtP lethal, PrP 5UTR inh, RN4220 kill, Mtb hypoxia rep, Mtb hypoxia rep growth, Autofluor counter, BJeLR lethal
> Cc1ccc(N(C(C)C(=O)N2CCCC2)S(C)(=O)=O)cc1 (stereo not given)
 : 6, -12, 2.3, 0, -2, 4011, 16
> COc1ccc(CCCC(=O)N/N=C/c2ccccc2OC)cc1
 : ., 50, ., ., ., 3140, 3
> COc1ccc(NC2CC(=O)NC2=O)cc1 (stereo not given)
 : -1, -28, -1.4, -5, 2, 4464, 2
> O=C(CN1C(=O)COc2ccc(S(=O)(=O)N3CCCCC3)cc21)NCc1ccc(F)cc1
 : -7, -2, -0.1, -2, 0, 5380, -3
> O=C(O)c1cc(Cl)ccc1-c1ccc(/C=C/c2cc(C(F)(F)F)[nH]c(=O)n2)o1
 : ., -17, ., ., ., 4428, -5
> COc1cc(/C=N/Nc2ccnc(=O)[nH]2)ccc1O
 : ., -19, ., ., ., 2776, 1
> CN(C)S(=O)(=O)c1cc(NC(=O)CN2CCN(c3ccccc3F)CC2)ccc1Cl
 : 20, -16, 3.3, 4, 5, 3231, 15

# Some of these compounds in order of molar mass, lowest first.
# Order of results – Sa ugtP lethal, PrP 5UTR inh, RN4220 kill, Mtb hypoxia rep, Mtb hypoxia rep growth, Autofluor counter, BJeLR lethal
> CCOc1ccccc1OCCC(=O)OCC(=O)c1ccc[nH]1
 : 5, -37, 2.5, 8, 0, 4372, -22
> CC(C)CC(O)C1CCN(C(=O)CCc2nnc(-c3ccccc3)o2)CC1 (stereo not given)
 : 1, -36, 0.6, 7, 9, 3821, -8
> O=C(COc1ccc(S(=O)(=O)NC2CCCC2)cc1)NCC1CCCO1 (stereo not given)
 : 2, -20, 2.5, 5, -2, 4744, 0

# Already shown: an excerpt of the list.
# Order of results – Sa ugtP lethal, PrP 5UTR inh, RN4220 kill, Mtb hypoxia rep, Mtb hypoxia rep growth, Autofluor counter, BJeLR lethal
> O=C(CN1C(=O)COc2ccc(S(=O)(=O)N3CCCCC3)cc21)NCc1ccc(F)cc1
 : -7, -2, -0.1, -2, 0, 5380, -3
> O=C(O)c1cc(Cl)ccc1-c1ccc(/C=C/c2cc(C(F)(F)F)[nH]c(=O)n2)o1
 : ., -17, ., ., ., 4428, -5
> COc1cc(/C=N/Nc2ccnc(=O)[nH]2)ccc1O
 : ., -19, ., ., ., 2776, 1
